Tb PGK inh – qHTS Assay to Find Inhibitors of Phosphoglycerate Kinase; Potency, µM (series often up to 57.5 µM), for inactives: top-dose activity change, negative = inhibition, actives largely listed as inhibitors; actives 0.043% (n = 380,000); AID 602233, 2012; PGK/GAPDH coupled, Kinase-Glo luminescence, 60 min; Phosphoglycerate kinase, glycosomal (Trypanosoma brucei brucei), P07378; note: % is set by controls: 0 for no effect and ±100 for the full control effect; nearly all actives have a fitted effect of over 60% in size
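Recombinant glycosomal PGK reaction used 1,3-bisphosphoglycerate generated in-well by GAPDH (100nM final) in 100mM TEA pH 7.6, 5mM MgCl2, 0.01% Tween-20. After 60 minutes at room temperature, ATP was read by Kinase-Glo Plus luminescence end-point.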
Pin1 inhibitor – qHTS Assay to Find Inhibitors of Pin1; Pin1 FP peptide displacement, HiFluor488, 10 min; Potency, µM (highest dose often 115 µM), for inactives: top-dose activity, negative = inhibition, actives largely listed as inhibitors; actives 0.009% (n = 390,000); active = well fitted inhibition curve with a large enough effect in the polarisation, with a control signal flat, not every such curve was filed as active; inconclusive = small, poorly fitted or top-dose-only effect, or effect the other way, or a change in a side signal; inactive = no such curve, though single readings can be large or run the other way; the % refers to the polarisation; note: % is set by controls: 0 for no effect and ±100 for the full control effect
Pol iota inh – qHTS for Inhibitors of Polymerase Iota. AID 588590, 2011. DNA polymerase iota (Homo sapiens), Q9UNA4. Potency, µM (series often up to 115 µM), for inactives: at the top dose activity, negative = inhibition, hits mostly inhibitors. actives 1% (n = 390,000). Pol iota fluorescent replication assay, 10 min
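Pol iota at 10 nM preincubated 15 min with compounds at room temperature; reaction started with fluorescent substrate, 50 nM final. Fluorescence read kinetically at 0 and 10 min; buffer-only wells as negative control.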
BLM inh – qHTS Assay for Inhibitors of Bloom's syndrome helicase (BLM); recombinant BLM DNA unwinding, fluorescence dequenching; Potency, µM (top dose mostly 56.1 µM), inactives show at the top dose activity change, negative = inhibition, most hits filed as inhibitors; actives 0.2% (n = 350,000);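 note: plate controls were vehicle for no effect and no enzyme for full effect; nearly all actives have a fitted effect of over 35% in size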
Target sequence (P54132 whole entry, looked up): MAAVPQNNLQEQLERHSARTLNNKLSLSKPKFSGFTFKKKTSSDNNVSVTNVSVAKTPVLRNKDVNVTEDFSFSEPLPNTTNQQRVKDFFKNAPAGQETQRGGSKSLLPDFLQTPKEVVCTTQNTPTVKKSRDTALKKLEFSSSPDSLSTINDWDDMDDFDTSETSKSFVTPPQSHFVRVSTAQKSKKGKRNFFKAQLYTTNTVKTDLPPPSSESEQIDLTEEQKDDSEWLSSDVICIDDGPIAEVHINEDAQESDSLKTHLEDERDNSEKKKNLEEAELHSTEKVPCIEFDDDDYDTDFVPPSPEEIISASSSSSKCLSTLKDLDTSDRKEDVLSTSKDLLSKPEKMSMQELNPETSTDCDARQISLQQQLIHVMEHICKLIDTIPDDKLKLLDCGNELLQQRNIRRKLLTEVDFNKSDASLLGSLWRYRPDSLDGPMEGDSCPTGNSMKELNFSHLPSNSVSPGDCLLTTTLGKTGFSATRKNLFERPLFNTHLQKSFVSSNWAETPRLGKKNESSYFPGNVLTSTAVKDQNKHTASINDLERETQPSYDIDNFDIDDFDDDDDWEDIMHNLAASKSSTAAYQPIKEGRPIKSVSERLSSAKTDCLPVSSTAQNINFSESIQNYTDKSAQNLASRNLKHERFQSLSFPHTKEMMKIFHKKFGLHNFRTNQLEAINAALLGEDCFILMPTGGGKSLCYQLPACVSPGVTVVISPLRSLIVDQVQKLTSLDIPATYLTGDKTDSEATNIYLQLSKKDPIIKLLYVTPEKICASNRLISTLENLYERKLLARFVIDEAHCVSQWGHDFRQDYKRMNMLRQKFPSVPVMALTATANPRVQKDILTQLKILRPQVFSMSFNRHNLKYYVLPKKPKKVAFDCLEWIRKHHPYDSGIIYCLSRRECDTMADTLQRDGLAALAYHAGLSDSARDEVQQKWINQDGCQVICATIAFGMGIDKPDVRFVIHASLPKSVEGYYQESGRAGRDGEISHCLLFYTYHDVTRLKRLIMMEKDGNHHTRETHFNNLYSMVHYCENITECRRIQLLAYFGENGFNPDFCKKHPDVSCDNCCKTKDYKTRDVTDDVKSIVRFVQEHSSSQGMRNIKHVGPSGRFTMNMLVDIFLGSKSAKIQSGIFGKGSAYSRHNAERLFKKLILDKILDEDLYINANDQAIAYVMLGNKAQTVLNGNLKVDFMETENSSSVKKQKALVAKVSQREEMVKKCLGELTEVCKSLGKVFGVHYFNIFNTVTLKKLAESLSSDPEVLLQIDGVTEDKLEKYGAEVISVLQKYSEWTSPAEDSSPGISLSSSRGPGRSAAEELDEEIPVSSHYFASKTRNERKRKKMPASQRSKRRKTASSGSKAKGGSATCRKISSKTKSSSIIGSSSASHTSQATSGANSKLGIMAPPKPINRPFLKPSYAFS
GLS inh – qHTS for Inhibitors of Glutaminase (GLS); Glutaminase kidney isoform, mitochondrial (Homo sapiens), O94925; Potency, µM (top dose mostly 45.5 µM), without a hit: top-dose activity change, negative = inhibition, hits mostly inhibitors; GLS enzymatic activity, qHTS titration; actives 0.21% (n = 410,000); note: % is set by controls: 0 for no effect and ±100 for the full control effect
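Glutamate formation by hKGA was monitored fluorometrically using coupled glutamate oxidase, HRP and Amplex Red. Substrate was added as 1 mM L-glutamine solution; incubation was 30 min at RT after an initial read.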
Active calls of the source: *; & = joins results of further samples; [ ] = dose if it differs, or a comment. Unless noted, calls come from the whole dose curve; as a rule, active = well fitted curve in the direction sought with a large enough effect; inconclusive = small, poorly fitted or top-dose-only effect, or another doubt; inactive = no such curve, though single readings can be large; an effect the other way counts as inactive or inconclusive. Potency is the fitted concentration of half-maximal effect. Some of the compounds tested. The share of hits here may be higher or lower than overall.

CCOC(=O)c1c(C)[nH]c(C)c1S(=O)(=O)N(C)CC(=O)Nc1ccc(OC)cc1 was read as Tb PGK inh 9%, Pin1 inhibitor 1%, Pol iota inh 26%, BLM inh 1% and GLS inh -5%.
COc1ccccc1C1/C(=C(/O)c2ccccc2)C(=O)C(=O)N1CC(C)O (stereo unspecified) was read as Tb PGK inh 4%, Pin1 inhibitor -8%, Pol iota inh 3%, BLM inh -2% and GLS inh -2%.
`Cc1nc(N2CCN(C(=O)c3ccco3)CC2)c2c3c(sc2n1)CCCC3` gave Pin1 inhibitor 6%, Pol iota inh -1%, BLM inh -9% and GLS inh 16%.
Screening CCOc1ccc(/C=C/c2nc(C#N)c(N3CCCCCC3)o2)cc1 returned Tb PGK inh inactive, Pin1 inhibitor -6%, Pol iota inh 22%, BLM inh -6% and GLS inh 6%.
For COc1ccc(/C(C)=N/NC(=O)c2ccc(NS(=O)(=O)c3cccs3)cc2)cc1 the results were Tb PGK inh 4%, Pin1 inhibitor 6%, Pol iota inh 9%, BLM inh -3% and GLS inh 11%.
Screening CCCCCSc1nc(O)cc(=O)[nH]1 returned Tb PGK inh -5%, Pin1 inhibitor 15%, Pol iota inh 9%, BLM inh -11% and GLS inh 4%.
Cc1ccc(-n2[nH]c(C)c(/C=N/Nc3ccc([N+](=O)[O-])cc3[N+](=O)[O-])c2=O)cc1 was read as Tb PGK inh -19%, Pin1 inhibitor -2%, Pol iota inh -14%, BLM inh 0% and GLS inh -14%.
`COc1ccc2cc3cc(C(=O)NCCN4CCc5ccccc5C4)sc3nc2c1` gave Tb PGK inh -10%, Pin1 inhibitor 0%, Pol iota inh 7%, BLM inh 75%[activator] and GLS inh 15%.
For CCOc1ccc(NC(=O)CN(C)S(=O)(=O)c2cccs2)cc1 the results were Tb PGK inh -4%, Pin1 inhibitor 12%, Pol iota inh 20%, BLM inh -1% and GLS inh -3%.
Screening COc1ccc(/C=N/NC(=O)c2cccc(C(=O)N/N=C/c3ccc(OC)cc3)n2)cc1 returned Tb PGK inh -2%, Pin1 inhibitor 4%, Pol iota inh -2%, BLM inh 0% and GLS inh -1%.
CCOC(=O)c1cc(Br)c(=O)n2ccccc12 was read as Tb PGK inh inactive, Pin1 inhibitor 0%, Pol iota inh 36%[activator], BLM inh -1% and GLS inh -7%.
C=CCC1(NCc2ccco2)CCN(CC)CC1 was read as Tb PGK inh 1%, Pin1 inhibitor -6%, Pol iota inh inconclusive, BLM inh -4% and GLS inh 4%.
O=C1C2C3C=CC(CNS(=O)(=O)c4ccccc4)(O3)C2C(=O)N1c1ccc(Cl)cc1 (stereo unspecified) was read as Tb PGK inh -8%, Pin1 inhibitor 5%, Pol iota inh inconclusive, BLM inh 0% and GLS inh 1%.
Screening Cc1c(Cl)cccc1NC(=O)COC(=O)CCc1nc2ccccc2n1-c1ccccc1 returned Tb PGK inh -1%, Pin1 inhibitor 26%, Pol iota inh 15%, BLM inh 0% and GLS inh -6%.
`Cc1ccccc1CN1CCN(C(C)C(=O)NCc2ccccc2)CC1` (stereo unspecified) gave Tb PGK inh -3%, Pin1 inhibitor 0%, Pol iota inh -3%, BLM inh -1% and GLS inh -1%.
Cc1ccc(N2C(=O)C3CCCN3C2=S)cc1 (stereo unspecified) was read as Tb PGK inh 7%, Pin1 inhibitor -1%, Pol iota inh 15%, BLM inh -2% and GLS inh 1%.
`COc1cc(/C=N/N(C)C)ccc1OC(=O)c1cccs1` gave Tb PGK inh 5%, Pin1 inhibitor -2%, Pol iota inh 120%[activator], BLM inh -6% and GLS inh -10%.
COc1cccc(CC2(CO)CCCN(Cc3ccc(C)s3)C2)c1 (stereo unspecified) was read as Tb PGK inh -6%, Pin1 inhibitor -14%, Pol iota inh 37%[activator], BLM inh -1% and GLS inh 0%.
C=CCc1cccc2cc(-c3nc4ccc(C(=O)O)cc4[nH]3)c(=O)oc12 was read as Tb PGK inh -17%, Pin1 inhibitor -10%, Pol iota inh inconclusive, BLM inh 0% and GLS inh -7%.
`NS(=O)(=O)c1ccc(NC(=O)c2ccc3nccnc3c2)cc1` gave Tb PGK inh inactive, Pin1 inhibitor -4%, Pol iota inh 82%[activator], BLM inh -4% and GLS inh 11%.
Screening CCN(Cc1ccccc1)c1ccc(/C=N/N2CCOCC2)cc1 returned Tb PGK inh -2%, Pin1 inhibitor -1%, Pol iota inh 25%, BLM inh -3% and GLS inh 0%.
`COc1cc(CNCc2ccccn2)ccc1OCc1cccc(Cl)c1` gave Tb PGK inh -2%, Pin1 inhibitor 4%, Pol iota inh 0%, BLM inh -5% and GLS inh 9%.
Screening Cc1cccc(C(=O)Oc2ccc(/C=N/NC(=O)c3ccncc3)cc2)c1 returned Tb PGK inh inactive, Pin1 inhibitor 1%, Pol iota inh 153%[activator], BLM inh 4% and GLS inh 0%.
`CCOC(=O)[C@@H](C)N(Cc1ccc(OC)cc1)S(=O)(=O)N(Cc1ccccc1)[C@H](C(=O)OC)C(C)C` gave Tb PGK inh -7%, Pin1 inhibitor 0%, Pol iota inh -10%&-1% and GLS inh 2%.
For Cc1ccccc1OCCn1cc(C(=S)N2CCN(C)CC2)c2ccccc21 the results were Tb PGK inh -7%, Pin1 inhibitor 3%, Pol iota inh 5%, BLM inh -11% and GLS inh 3%.
`C[C@H](NC(=O)c1nc[nH]c1C(=O)N[C@@H](C)c1ccccc1)C(=O)OC(C)(C)C` gave Tb PGK inh inactive, Pin1 inhibitor inconclusive, Pol iota inh 8%, BLM inh -7% and GLS inh -2%.
Screening O=C(O)c1cn(C2CC2)c2cc(N3CCNCC3)c(F)cc2c1=O returned BLM inh -2% and GLS inh -8%[20 µM].
CC(C)NC(=O)NC(=O)COC(=O)Cc1c(F)cccc1Cl was read as Tb PGK inh -7%, Pin1 inhibitor 2%, Pol iota inh 18%, BLM inh -4% and GLS inh 0%.
COc1ccc(Nc2ncc3c(n2)CC(c2ccc(OC)cc2)CC3=O)cc1 (stereo unspecified) was read as Tb PGK inh inactive, Pin1 inhibitor 4%, Pol iota inh 4%, BLM inh -2% and GLS inh -10%.
For COC(=O)[C@@H](CC(C)C)NS(=O)(=O)N(Cc1ccccc1)[C@@H](CC(C)C)C(=O)OC the results were Tb PGK inh 2%, Pin1 inhibitor 3%, Pol iota inh 43%&7%[activator] and GLS inh 2%.
Screening CCOc1cccc2sc(N(CCCN(C)C)C(=O)c3ccc(C(=O)c4ccccc4)cc3)nc12 returned Tb PGK inh -8%, Pin1 inhibitor -3%, Pol iota inh 7%, BLM inh 0% and GLS inh 1%.
For COc1ccc(Br)cc1CN1CCCC(C(=O)N2CCCCCC2)C1 (stereo unspecified) the results were Tb PGK inh -9%, Pin1 inhibitor -16%, Pol iota inh 0%, BLM inh -6% and GLS inh 14%.
CC(C(=O)Nc1ccccc1-c1ccccc1)N1CCOCC1 (stereo unspecified) was read as Pin1 inhibitor inconclusive, Pol iota inh 17%, BLM inh 6% and GLS inh 3%.
Screening NCCCC(=O)O returned Tb PGK inh -1%, Pin1 inhibitor -4%, Pol iota inh -16%, BLM inh -1%&-14%&-12%&-3% and GLS inh -3%&10%.
Screening COc1ccc(Br)cc1/C=N/n1c(C)nnc1C returned Tb PGK inh -10%, Pin1 inhibitor 6%, Pol iota inh 7%, BLM inh -7% and GLS inh 6%.
`Fc1ccc(-c2csc(-c3cccnc3)n2)cc1F` gave Tb PGK inh -1%, Pin1 inhibitor 0%, Pol iota inh 52%[activator], BLM inh -3% and GLS inh 0%.
CCc1ccc(NC(=O)CN(c2ccc(C)cc2)S(=O)(=O)c2cccs2)cc1 was read as Tb PGK inh -1%, Pin1 inhibitor 33%[activator], Pol iota inh 5%, BLM inh -2% and GLS inh 5%.
Screening CCOc1ccc(OCC(=O)Nc2nnc3n2CCS3)cc1 returned Tb PGK inh -9%, Pin1 inhibitor -3%, Pol iota inh 19%, BLM inh -1% and GLS inh 0%.
O=C(N[C@@H](Cc1ccccc1)C(=O)NCCc1c[nH]c2ccccc12)c1ccco1 was read as Tb PGK inh 3%, Pin1 inhibitor -6%, Pol iota inh -13%, BLM inh -1% and GLS inh -6%.
COc1ccc(C2SCC(C(=O)NCc3ccc(F)cc3)N2C(C)=O)cc1 (stereo unspecified) was read as Tb PGK inh -1%, Pin1 inhibitor -2%, Pol iota inh 5%, BLM inh -3% and GLS inh 1%.
Screening NC(=O)COC(=O)c1c2c(nc3ccccc13)CCCCC2 returned Tb PGK inh 0%, Pin1 inhibitor -1%, Pol iota inh 10%, BLM inh -4% and GLS inh 3%.
For Cc1ccc(Nc2sc(C(=O)c3ccccc3)c(N)c2C(=O)Nc2ccc(Cl)cc2)cc1 the results were Tb PGK inh -7%, Pin1 inhibitor -5%, Pol iota inh 21%, BLM inh -3% and GLS inh 8%.
Screening COc1ccc(C2NC(c3ccc(OC)cc3OC)C(C)C(=O)C2C)c(OC)c1 (stereo unspecified) returned Tb PGK inh -1%, Pin1 inhibitor -4%, Pol iota inh 29%, BLM inh -1% and GLS inh -1%.
For COC(=O)c1c(NC(=O)CCNCc2ccco2)sc2c1CCC2 the results were Tb PGK inh inactive, Pin1 inhibitor -2%, Pol iota inh -16%, BLM inh 17% and GLS inh 53%[activator].
Screening Cc1cccc(NC(=O)COC(=O)CCc2ccccc2)c1C returned Tb PGK inh -5%, Pin1 inhibitor 5%, Pol iota inh 86%[activator], BLM inh -7% and GLS inh -5%.
`COc1cc(OC)c(OC)cc1/C=N/n1c(C)nnc1C` gave Tb PGK inh inactive, Pin1 inhibitor 0%, Pol iota inh -9%, BLM inh -1% and GLS inh -3%.
CN(C)CCCN(CCCNC(=O)/C=N/O)Cc1ccccc1 was read as Tb PGK inh 1%, Pin1 inhibitor -5%, Pol iota inh -2%, BLM inh -7% and GLS inh 18%.
Screening Cc1cc([N+](=O)[O-])nn1CCCC(=O)Nc1sc2c(c1C(N)=O)CCCC2 returned Tb PGK inh 8%, Pin1 inhibitor -2%, Pol iota inh 115%[activator], BLM inh -2% and GLS inh -14%.
For CC1(C)Cc2ccccc2C(/C(C#N)=N/O)=N1 the results were Tb PGK inh -8%, Pin1 inhibitor -2%, Pol iota inh 31%, BLM inh -3% and GLS inh 0%.
`COc1ccc2cc(C#N)c(N3CCN(Cc4nnnn4CCC(C)C)CC3)nc2c1` gave Tb PGK inh 9%, Pin1 inhibitor 3%, Pol iota inh inconclusive, BLM inh -3% and GLS inh 7%.
`O=C(Nc1ccccc1Cl)c1ccccc1S(=O)(=O)c1ccccc1[N+](=O)[O-]` gave Tb PGK inh 4%, Pin1 inhibitor 0%, Pol iota inh 13%, BLM inh -2% and GLS inh 13%.
CCOC(=O)c1sc(=S)n(C)c1NC(=O)c1ccc(C(C)(C)C)cc1 was read as Tb PGK inh 0%, Pin1 inhibitor 3%, Pol iota inh 114%[activator], BLM inh -15% and GLS inh 9%.
Screening O=C(N/N=C/c1ccc([N+](=O)[O-])cc1)c1ccc(NS(=O)(=O)c2cccs2)cc1 returned Tb PGK inh -1%, Pin1 inhibitor -3%, Pol iota inh 10% and GLS inh 10%.

Entries shown so far that have a furan ring, fused or not (4):
`Cc1nc(N2CCN(C(=O)c3ccco3)CC2)c2c3c(sc2n1)CCCC3` gave Pin1 inhibitor 6%, Pol iota inh -1%, BLM inh -9% and GLS inh 16%.
C=CCC1(NCc2ccco2)CCN(CC)CC1 was read as Tb PGK inh 1%, Pin1 inhibitor -6%, Pol iota inh inconclusive, BLM inh -4% and GLS inh 4%.
O=C(N[C@@H](Cc1ccccc1)C(=O)NCCc1c[nH]c2ccccc12)c1ccco1 was read as Tb PGK inh 3%, Pin1 inhibitor -6%, Pol iota inh -13%, BLM inh -1% and GLS inh -6%.
For COC(=O)c1c(NC(=O)CCNCc2ccco2)sc2c1CCC2 the results were Tb PGK inh inactive, Pin1 inhibitor -2%, Pol iota inh -16%, BLM inh 17% and GLS inh 53%[activator].

High-throughput results from PubChem BioAssay.
